# GLA inh pH 4.5 = qHTS Assay for Inhibitors of Human alpha-Galactosidase at pH 4.5. Alpha-galactosidase A (Homo sapiens), P06280. purified enzyme, 4-MU-alpha-Gal fluorescence, pH 4.5. activity change, negative = inhibition, % at 105 µM. 230,000 tested, under 10 active; inconclusive = small, poorly fitted or top-dose-only inhibition, or a rising curve; inactive = flat fitted curve, though single readings scatter; no compound was filed as active;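 further: 0% = full activity with enzyme and -100% = basal without enzyme; dose as in the result columns while the protocol names 77 µM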
# Target sequence (P06280 whole entry, looked up): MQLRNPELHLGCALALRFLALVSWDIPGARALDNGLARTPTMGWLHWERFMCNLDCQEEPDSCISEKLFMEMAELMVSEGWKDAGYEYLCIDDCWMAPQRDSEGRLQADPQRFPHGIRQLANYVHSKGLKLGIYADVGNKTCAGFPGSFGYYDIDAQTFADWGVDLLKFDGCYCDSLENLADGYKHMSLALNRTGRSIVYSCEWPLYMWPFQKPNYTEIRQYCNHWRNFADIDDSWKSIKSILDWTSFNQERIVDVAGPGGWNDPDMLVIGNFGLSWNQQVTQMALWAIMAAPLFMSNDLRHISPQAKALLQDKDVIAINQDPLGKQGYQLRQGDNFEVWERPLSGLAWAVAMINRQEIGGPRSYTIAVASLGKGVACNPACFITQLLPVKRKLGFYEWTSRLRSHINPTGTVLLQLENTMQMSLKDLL
# Rango complex inh = qHTS Assay for Inhibitors of Rango (Ran-regulated importin-beta cargo) - Importin beta complex formation | AID 540263, 2011 | Rango CFP/YFP FRET sensor + importin beta, 45 min | 340,000 tested, 0.031% active | Potency, µM (series often up to 92.2 µM), inactives show top-dose inhibition of complex formation | Importin subunit beta-1 (Homo sapiens), Q14974; active = rising FRET ratio curve, often small or poorly fitted; inconclusive = mostly compound fluorescence or quenching in the first reads; inactive = flat curves in all reads;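 further: potency means the concentration at half of the fitted maximal effect; 0% = DMSO wells and 100% = buffer wells lacking importin beta; nearly all actives have a fitted effect of over 15% in size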
#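 FRET biosensor (snurportin 1 IBB flanked by EYFP and cerulean), 50 nM, with compound 5 min, then 0.125 microM importin beta in PBS, 1 mM DTT, 0.02% Tween-20, 0.1% BSA. CFP/YFP ratio read after 45 min at room temperature; pre-read flags interference.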
# Rango release inh = qHTS Assay for Inhibitors of RanGTP induced Rango (Ran-regulated importin-beta cargo) - Importin beta complex dissociation; Snurportin-1 (Homo sapiens) + GTP-binding nuclear protein Ran (Homo sapiens) + Importin …; Biochemical FRET Rango-importin beta, RanGTP-induced dissociation; Potency, µM (titrated, usually from 46.1 µM), for inactives: at the top dose activity change, negative = inhibition; 340,000 tested, 0.071% active; active means falling FRET ratio curve, often poorly fitted, with flat reads before Ran was added; inconclusive means other falling curves, or compound fluorescence or quenching; inactive means flat or rising ratio curve;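 further: potency means the concentration at half of the fitted maximal effect; % of control where 0% means no effect; nearly all actives have a fitted effect of over 45% in size; -100% = wells without RanGTP and RCC1; the record marks most hits as doubtful in a second field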
#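 FRET read at 45 min, room temperature: inhibitors block the CFP/YFP signal rise when RanGTP (0.6 uM Ran, 2 mM GTP, 0.2 uM RCC1) frees Rango (0.1 uM) from importin beta (0.25 uM). Pre-read after 5 min compound exposure flags interference.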
# miR-21 FLuc = qHTS Assay for Modulators of miRNAs and/orActivators of miR-21; HeLa miR-21 FLuc reporter, luciferase, 48 h; Potency, µM (titrated, usually from 38.3 µM), for the others: at the top dose reporter change, positive = more light; 340,000 tested, under 10 active; AID 2288, 2010; active = well fitted rising curve with a large enough effect; inconclusive = small, poorly fitted or top-dose-only effect; inactive = no such curve, though single readings can be large or run the other way;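 further: % of control where 0% means no effect; miR-21 action dims this reporter so a rising signal means less miR-21 action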
#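 Luminescence from a firefly luciferase reporter carrying a miR-21 binding site downstream, stably expressed under a CMV promoter in HeLa cells that make miR-21 endogenously, reports miRNA modulation after 48 h compound exposure up to approximately 40uM final.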
# Starred values were filed as active, the others as inactive; u = inconclusive; x = no result given; & = joins results of further samples.
SMILES,GLA inh pH 4.5,Rango complex inh,Rango release inh,miR-21 FLuc
COc1cc([N+](=O)[O-])ccc1NC(=O)COC(=O)CCS(=O)(=O)c1ccc(C)cc1,x,3.5%,-8%,x
Cc1cccc(Nc2ccncc2S(=O)(=O)NC(=O)NC(C)C)c1,1&-18&7,0.1%,2%,5%
Nc1nonc1N/N=C/c1c(O)ccc2ccccc12,-8,-0.3%,-7%,-1%
Cc1ccn2cc(C(=O)Nc3ccccc3N3CCOCC3)nc2c1,-3,3.6%,7%,-8%
CCN(CC)c1nc(SCCOC(=O)Nc2ccccc2)nc(N(CC)CC)n1,-23,5.4%,1%,-27%
COCCn1c(SCC(=O)NC(=O)NCc2ccccc2)nc2ccccc21,-9,-0.8%,u,-1%
COc1ccc([N+](=O)[O-])cc1N(CC(=O)N(C)C)S(C)(=O)=O,-1,-3.4%,-3%,-3%
COc1cccc(-c2nn3c(-c4ccccn4)nnc3s2)c1,1,2.4%,7%,-39%
CCN1C(=O)S/C(=C/c2c(OCc3ccc(C(=O)O)cc3)ccc3ccccc23)C1=O,-5,u,-12%,3%
CCSCCC(NC1=CC(=O)CC(C)(C)C1)C(=O)O (centres undefined),2,0.1%,-15%,-8%
COc1ccc(C2c3ccc4ccccc4c3Oc3ncn(CCN4CCOCC4)c(=N)c32)cc1 (centres undefined),-1,14%,1%,15%
CCc1ccc(/C=N/NC(=O)Cc2ccc(OC)c(OC)c2)s1,x,0.4%,-4%,-5%
CCCOC(=O)C1[C@H]2C(=O)N(C(C)c3ccc(OC)cc3)C[C@]23C=C[C@H]1O3 (some centres undefined),6,3.0%,-17%,-2%
Cn1cc(/C=C(\NC(=O)c2ccccc2Cl)C(=O)NCCCn2ccnc2)c2ccccc21,x,3.1%,0%,2%
O=C1CC(CC(=O)N/N=C/c2ccccc2[N+](=O)[O-])=NN1,-1,0.1%,-8%,-3%

# Random excerpt: six compounds from above.
SMILES,GLA inh pH 4.5,Rango complex inh,Rango release inh,miR-21 FLuc
CCc1ccc(/C=N/NC(=O)Cc2ccc(OC)c(OC)c2)s1,x,0.4%,-4%,-5%
CCN(CC)c1nc(SCCOC(=O)Nc2ccccc2)nc(N(CC)CC)n1,-23,5.4%,1%,-27%
Cn1cc(/C=C(\NC(=O)c2ccccc2Cl)C(=O)NCCCn2ccnc2)c2ccccc21,x,3.1%,0%,2%
COCCn1c(SCC(=O)NC(=O)NCc2ccccc2)nc2ccccc21,-9,-0.8%,u,-1%
CCSCCC(NC1=CC(=O)CC(C)(C)C1)C(=O)O (centres undefined),2,0.1%,-15%,-8%
COc1cccc(-c2nn3c(-c4ccccn4)nnc3s2)c1,1,2.4%,7%,-39%

# Next part
SMILES,GLA inh pH 4.5,Rango complex inh,Rango release inh,miR-21 FLuc
COc1ccc(C(C)=O)cc1CSc1nc2ccccc2c(=O)n1-c1ccccc1,7,-3.1%,-9%,-2%
COc1ccc(CNC(=O)COC(=O)CCn2c(C)csc2=O)cc1OC,x,-0.9%,10%,x
C/C(CC(=O)Nc1ccccc1C(F)(F)F)=N\NC(=O)c1cnccn1,x,2.4%,2%,x
NS(=O)(=O)c1ccc(Nc2nc(-c3ccc(F)cc3)cs2)cc1,-14,-2.5%,9%,0%
COCCN(C(=S)Nc1ccc(Cl)cc1OC)C1CCN(C(C)=O)CC1,1,-0.1%,-3%,-7%
C=CCN1C(=O)c2ccc(C(=O)OCC(=O)N(C)C3CCCCC3)cc2C1=O,8,1.3%,19%,-2%
O=C(CN1CCCC1=O)NC1C2CC3CC(C2)CC1C3 (centres undefined),0,-1.1%,0%,-12%
O=C(COC(=O)c1cnc(Cl)c(Cl)c1)NCCC1=CCCCC1,-3,1.6%,-8%,1%
COc1ccc(NC(=O)Cn2cccc2)c(OC)c1,7,0.2%,-9%,-2%
Cc1cc2nc(SCC(=O)O)nc(C)c2cc1C,-1,-6.2%,3%,-8%
NC(=O)CC(NC(=O)Cc1ccc(Br)cc1)c1ccc(N2CCc3ccccc3C2)c([N+](=O)[O-])c1 (centres undefined),x,1.9%,25%,13%
C=C1CCC2C(C)(C)[C@@H](O)CC[C@@]2(C)[C@@H]1COc1ccc2ccc(=O)oc2c1 (some centres undefined),x,-0.1%,-9%,-3%
COC(C[C@H]1O[C@H]1[C@@H](O)COCc1ccccc1)OC,-8,-2.0%,-9%,-3%
Cc1cc(Cl)ccc1OCC(=O)NNC(=O)c1cnccn1,5,0.4%,1%,11%
Cc1ccccc1C(N)=O,x,0.1%,-4%,x
Cc1ccc(CN2CCNC(=O)C2CC(=O)NCc2csc(C(C)C)n2)cc1 (centres undefined),x,1.2%,-20%,1%
CS(=O)(=O)N(Cc1ccccc1)c1ccc(C(=O)Nc2cccnc2)cc1,-8,-0.2%,-5%,-8%
Oc1c(N=NC(=S)Nc2ccccc2F)c2ccccc2n1Cc1ccc(Cl)cc1,-12,4.8%,7%,1%
CC(=O)Nc1cccc(NC(=O)c2ccc(Br)cc2)c1,6,0.0%,-6%,-26%
C[n+]1ccccc1C1CCCC/C1=N\NC(N)=S (centres undefined),0,3.0%,-7%,2%
CCOC(=O)Cn1nnc(-c2ccc(SC)cc2)n1,-5,-0.5%,0%,-6%
c1cnc2nc3c4ccccc4c4ccccc4c3nc2c1,x,u,u,x
O=S(=O)(Nc1ccccc1F)c1cccc(NC(=S)NCCN2CCOCC2)c1,x,-0.5%,-9%,x
COc1ccc(Cl)c2sc(NC(=O)C3=COCCO3)nc12,x,-1.3%,-23%,x
CCCCNC(=S)N(Cc1ccco1)Cc1cc2cc3c(cc2[nH]c1=O)OCCO3,-8,1.9%,-20%,21%
Cc1nn(C)cc1[C@@H]1C[C@H]2CN(Cc3cccc(Cl)c3)C(=O)[C@]23CCCN13,-13,1.8%,8%,-3%
CCCCCCOC1(c2ccccc2)OC(=O)c2ccccc21 (centres undefined),-14,1.4%,-2%,-8%
CCOc1ccc(CCNC(=O)c2nnn(CC(=O)Nc3ccc(C)cc3)c2N)cc1OCC,x,2.0%,11%,-4%
Cc1cccc(Cn2c(NCCO)nc3c2c(=O)n(C)c(=O)n3C)c1,-1,1.5%,-12%,15%
Cc1ccc(N2C(=O)N3[C@H](c4ccc(F)cc4)[C@@H]4C(=O)N(C5CCCCC5)C(=O)[C@@H]4[C@]3(C)C2=O)cc1,x,-0.9%,4%,3%

# Gathered by group: the entries above containing bromine (two)
SMILES,GLA inh pH 4.5,Rango complex inh,Rango release inh,miR-21 FLuc
NC(=O)CC(NC(=O)Cc1ccc(Br)cc1)c1ccc(N2CCc3ccccc3C2)c([N+](=O)[O-])c1 (centres undefined),x,1.9%,25%,13%
CC(=O)Nc1cccc(NC(=O)c2ccc(Br)cc2)c1,6,0.0%,-6%,-26%

# More records
SMILES,GLA inh pH 4.5,Rango complex inh,Rango release inh,miR-21 FLuc
Cn1c(=O)[nH]c(=O)c2c1nc(CN1CCN(Cc3ccccc3)CC1)n2CC(N)=O,0,1.5%,-18%,0%
O=C(NCCNc1ccc([N+](=O)[O-])cc1C(F)(F)F)c1ccccc1,5,-4.1%,1%,-5%
O=C(NCc1cccs1)C1CC(=O)N(Cc2ccccc2)C1 (centres undefined),x,u,u,x
COc1ccc(C2=NN(C(=O)COC(=O)c3ccc(S(C)(=O)=O)c([N+](=O)[O-])c3)C(c3ccco3)C2)cc1 (centres undefined),x,0.1%,5%,x
Cc1ccc(OCc2nnc(SCC(=O)Nc3sc(C)c(C)c3C#N)n2C)cc1,-1,0.5%,-8%,-19%
CN(C)CCC(O)c1ccccc1 (centres undefined),0,0.3%,10%,-3%
CNS(=O)(=O)c1cccc(C(=O)OC2CCOC2=O)c1 (centres undefined),x,-1.9%,5%,2%
O=C(COc1ccc2c(-c3ccccc3)cc(=O)oc2c1)NCC(O)c1ccccc1 (centres undefined),x,1.9%,3%,0%
Cc1nc2ccccc2c(-c2ccccc2)c1C(=O)c1ccccc1,-24,1.4%,-9%,3%
CN1/C(=C\C(=O)c2cccc(S(=O)(=O)N3CCCCC3)c2)C(C)(C)c2ccccc21,-9,u,u,0%
CCc1ccc(N(CC)c2ncnc3nc[nH]c23)cc1,-2,-0.6%,0%,10%
COc1ccc(CCc2ccc3cc(OC)ccc3n2)cc1,x,2.5%,7%,x
CC1=C(C(=O)OCc2ccccc2)C(c2ccc3c(c2)OCO3)NC(=O)N1CCCC(=O)O (centres undefined),x,-4.8%,21%,x
Fc1cccc(NC(=S)NCC(c2cccnc2)N2CCOCC2)c1 (centres undefined),2,-0.4%,9%,1%
CCN1CC(CNCc2cn(-c3ccc(OC)cc3)nc2-c2ccccc2Cl)CC1=O (centres undefined),-5,-1.2%,0%,-5%
COc1cccc(/C=N/Nc2c(Cl)cncc2Cl)c1O,x,-3.3%,10%,-38%
CN(C)c1nc(SCc2ccc(Cl)cc2)nc2c1CCCC2,-7,0.7%,-3%,-14%
Cc1ccc(NC(=O)CCc2nc3ccccc3c(=O)[nH]2)cc1S(=O)(=O)N1CCOCC1,x,0.0%,2%,x
CC(=O)c1ccc(N2CCN(C(=O)c3ccc4ccccc4n3)CC2)cc1,-3,0.2%,14%,-2%
CCCn1cnc2c(SCc3ccccc3)nc(N)nc21,x,-1.8%,26%,x
Cc1cccc(-n2c3nc(=O)[nH]c(=O)c-3cc3c(C)nn(-c4ccccc4)c32)c1C,u,u,-7%,-13%&-2%
c1ccc(Nc2nc(-c3ccncc3)cs2)cc1,-2,1.2%,-7%,-54%
COc1ccc2nc(NC(=O)CSCC(=O)Nc3cc(C)on3)sc2c1,x,-4.7%,-8%,x
O=S(=O)(N=S(N1CCCCC1)N1CCCCC1)c1ccccc1,-2,4.2%,1%,0%
CC(=O)C(C(C)=O)C(c1ccccc1)c1nc2ccccc2[nH]c1=O (centres undefined),x,-2.7%,-4%,2%
CCOC(=O)C1=C(COC(=O)Cc2ccc(OC)c(OC)c2)NC(=O)NC1C (centres undefined),x,-1.4%,29%,x
C(=N/N1CCN(c2ccccc2)CC1)/c1cccs1,4,2.5%,0%,-47%
CC(=O)NC(C)c1nc2ccccc2n1CC(=O)NC(C)CCc1ccccc1 (centres undefined),0,-0.2%,11%,0%
CCn1c(C)nc2cc(C(=O)NNC(=O)[C@@H](NC(=O)c3cc(OC)cc(OC)c3)C(C)C)ccc21,x,0.9%,u,x
CCOc1cc(C(=O)CCC(=O)OCC(=O)NC(=O)NCC(C)C)ccc1O,-10,1.7%,-11%,4%
CC(=O)N1CCC2(CC1)NC(=O)N(c1ccccc1)N2,7,-5.7%,5%,-4%
O=[N+]([O-])c1cc(/C=N/Nc2nc(N3CCOCC3)nc(N3CCOCC3)n2)ccc1Cl,3,3.3%,13%,0%
Cc1ccc(S(=O)(=O)N2CCCCC2)cc1NC(=O)c1ccc2c(=O)n3c(nc2c1)CCCCC3,-2,x,x,u
Cc1ccc(-n2c(N)cc(=O)nc2SCC(=O)NC2CCCCC2)cc1C,x,6.0%,-4%,1%
S=C(NCc1ccccc1)Nc1cccc2cnccc12,x,u,12%,4%
Cc1ccccc1OCC(O)CN (centres undefined),3,3.8%,7%,-3%
Cc1ccc(/C=N\NC(=O)c2cncc(Br)c2)o1,4,-0.3%,-11%,-4%
CCCS(=O)(=O)N1CCN(C2Cc3ccccc3C2)CC1,5,5.1%,-4%,3%
CCCOC(=O)Cn1c(=O)c2cc3c(=O)n(CC(=O)OCCC)c(=O)c3cc2c1=O,-8,-0.6%,23%,1%
CN(CCOc1ccccc1)CCOc1ccccc1,x,-2.8%,1%,-2%
CCOC(=O)C1CCCN(C(=O)c2cn(C)c3ccc(S(=O)(=O)N4CCCC4)cc3c2=O)C1 (centres undefined),0,-0.1%,1%,-3%
S=c1nc[nH]c2c1sc1nc(N3CCOCC3)c3c(c12)CCCC3,3,0.3%,-2%,-12%
O=C(NNC1=Nc2cccc3cccc1c23)c1ccccc1Br,2,u,u,-6%

# Screening results: PubChem, National Center for Advancing Translational Sciences (NCATS)

# These rows are one share of the data. The share of hits here may be higher or lower than overall.
